Bioassay records deposited in PubChem by National Center for Advancing Translational Sciences (NCATS).
ClpP mod = qHTS Assay for Activators of ClpP; ATP-dependent Clp protease proteolytic subunit (Bacillus subtilis (strain 168)), P80244; purified B. subtilis ClpP, FRET peptide cleavage, 20 min; Potency, µM (titrated, usually from 57.5 µM), for the others: top-dose activity change, negative = active; hit rate 1.9% among 340,000; AID 651965, 2013; active = well fitted falling curve with a large enough effect; inconclusive = small, poorly fitted or top-dose-only effect; inactive = no such curve, though single readings can be large or run the other way; note: the source files actives as falling curves though it sought activators and does not explain the sign; nearly all actives have a fitted effect of over 65% in size; many hits overshoot -100%
Target sequence (P80244 whole entry, looked up): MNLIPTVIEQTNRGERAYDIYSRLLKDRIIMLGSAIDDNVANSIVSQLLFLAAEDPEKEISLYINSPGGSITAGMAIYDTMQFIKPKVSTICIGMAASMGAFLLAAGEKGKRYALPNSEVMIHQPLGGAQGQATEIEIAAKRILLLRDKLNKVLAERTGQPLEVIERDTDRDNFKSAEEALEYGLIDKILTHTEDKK
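Purified B. subtilis ClpP, 10 microg/mL final in Tris/HCl pH8 with KCl, BSA, glycerol and Tween-20, cleaved an Abz/nitrotyrosine-quenched decapeptide. Fluorescence (ex 320, em 430) was read at 0 and 20 min at room temperature. Delta was normalized to 5.8 microM ADEP and DMSO/no-enzyme controls.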
PINK1 modulator = A Quantitative High throughput Screen to Identify Chemical Modulators of PINK1 Expression. hit rate 0.2% among 410,000. PINK1 immunofluorescence, high-content cytometry, 24 h. Potency, µM (series often up to 76.6 µM), for inactives: at the highest dose activation (PINK1 increase), most hits filed as activators; active = well fitted activation curve with a large enough effect; inconclusive = small, poorly fitted or top-dose-only effect; inactive = flat fitted curve, though single readings scatter; cell line not stated here;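 note: % of control where 0% means no effect; nearly all actives have a fitted effect of over 65% in size; a mitochondrial uncoupler was the plate control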
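Measures PINK1 amount and localization on or inside mitochondria by immunofluorescence. Stable cells get compounds at 5 concentrations for 24 hours before fixation and staining; CCCP controls included.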
* hit, by the source's call; ? = inconclusive. Potency is the fitted concentration of half-maximal effect.

Sample of the layout:
Each structure is followed by: ClpP mod	PINK1 modulator
CCCOc1ccc(C2C(=O)N(C3CCCCCC3)CC(=O)N2Cc2ccccc2OC)cc1OC (stereo not given)
  -0.1%	2.2%
COC(=O)c1ccc(Cl)cc1NC(=O)N1CCC(CN2CCC(C)CC2)CC1
  ?	-1.5%

Results (from the top)
Each structure is followed by: ClpP mod	PINK1 modulator
CCCOc1ccc(C2C(=O)N(C3CCCCCC3)CC(=O)N2Cc2ccccc2OC)cc1OC (stereo not given)
  -0.1%	2.2%
COC(=O)c1ccc(Cl)cc1NC(=O)N1CCC(CN2CCC(C)CC2)CC1
  ?	-1.5%
Cn1c(=O)[nH]c(=O)c2c1nc(NCCc1ccccc1)n2Cc1ccc(F)cc1
  0.1%	1.1%
CC(=O)N1CCCc2cc(S(=O)(=O)Nc3ccc(OC(F)(F)F)cc3)ccc21
  -0.2%	-1.4%
CCC(C(=O)Nc1nnc2n1CCS2)c1ccccc1 (stereo not given)
  0.2%	-4.2%
COc1cc2nc(N3CCOCC3)nc(NC3CCN(Cc4ccccc4)CC3)c2cc1OC
  4.3%	7.2%
COc1cccc(CSc2nc3n(n2)C(c2cccnc2)C(C(=O)Nc2ccccc2C)=C(C)N3)c1 (stereo not given)
  -27%	2.6%
COc1ccc(-c2noc(COc3ccc(Br)cc3C)n2)cc1OC
  -15%	0.0%
O=C(Nc1ccc(C(F)(F)F)cc1)c1cc(S(=O)(=O)NC2CCCCCC2)ccc1F
  -2.2%	14%
CCc1ccc(NCc2cccn2-c2nnc(N3CCCCCC3)s2)cc1
  -0.1%	0.2%
Cc1ccc(C)c(Nc2nn3c(=O)c4ccc(C(=O)NCCC5=CCCCC5)cc4nc3s2)c1
  -9.1%	-3.8%
COc1ccc(-n2c(SCc3ccccc3)nc3c([nH]c4ccccc43)c2=O)cc1
  4.2%	-5.0%
CCCCn1c(CN2CCN(c3ccc(OC)cc3)CC2)nc2c1c(=O)[nH]c(=O)n2C
  -11%	3.7%
Cc1cccn2c(=O)cc(CSc3nnc(NC(=O)COc4ccccc4)s3)nc12
  0.8%	0.6%
COc1cccc(CNC(=O)NCc2noc3ccc(C)cc23)c1
  -1.7%	-1.8%
CCCSc1ncc(Cl)c(C(=O)Nc2c(C(=O)Nc3ccc(C)cc3)oc3ccccc23)n1
  -0.2%	1.1%
CCOc1ccc(N(C(C)C(=O)NCCSc2ccc(Cl)cc2)S(C)(=O)=O)cc1 (stereo not given)
  -1.3%	-0.4%
Cc1sc2ncn(CC(=O)Nc3ccc(C(C)C)cc3)c(=O)c2c1S(=O)(=O)N1CCN(c2ncccn2)CC1
  0.0%	?
CC(C)CCNC(=O)c1ccc(NC(=O)N2CCCCc3ccccc32)cc1
  -2.2%	1.4%
Cc1oc(-c2cccc(Cl)c2)nc1CN1CCC(C(=O)NCCCN2CCN(c3ccc(F)cc3)CC2)CC1
  -1.1%	3.8%
COCCCNc1nc2c(c(=O)n(Cc3ccccc3)c(=O)n2C)n1C
  -1.0%	1.7%
Cc1ccc2nc(/C(C#N)=C/c3ccc(-c4ccc(F)cc4F)o3)[nH]c2c1
  -0.4%	-0.3%
COc1cccc(CNC(=O)[C@@H]2CCCN2C(=O)[C@H]2CCCCN2)c1
  -2.0%	0.8%
Cc1cc(C)c2c(-n3cccc3)c(C(=O)NCc3cccc(F)c3)sc2n1
  -1.5%	0.1%
CSc1ccc(CCNC(=O)c2cnc3c(C)cccn3c2=O)cc1
  ?	1.9%
C=CCc1ccccc1OCC(O)CN1CCN(c2ccccc2)CC1 (stereo not given)
  0.6%	19%
COc1ccc(C)cc1NC(=O)Cn1c(=O)ccc2cc(S(=O)(=O)N3CCCC3)ccc21
  38%	-3.9%
Cc1ccccc1NC(=O)CCN1C(=O)c2ccccc2Sc2ncccc21
  -2.9%	-0.7%
COc1cccc(CNC(=O)[C@@H]2CCCN2C(=O)[C@@H]2CCCN2C(=O)c2cccc(OC)c2)c1
  -1.1%	-0.3%
Cc1ccccc1CNC(=O)C(=O)NCC(c1cccs1)S(=O)(=O)c1cccs1 (stereo not given)
  -3.7%	-0.6%
CCCN1C(=O)c2ccccc2NC1c1ccc(OC)c(COc2ccc([N+](=O)[O-])c(C)c2)c1 (stereo not given)
  -11%	0.3%
Cc1ccc(Nc2c(-c3ccc(N(C)C)cc3)nc3ccccn23)cc1
  4.1%	1.3%
CCOC(=O)c1ccccc1NC(=O)c1cc2c(=O)oc3ccc(C)cc3c2s1
  -2.2%	-0.4%
CC1CCCN(Cc2c(O)ccc3c(=O)c(Oc4ccc(C(C)(C)C)cc4)c(C(F)(F)F)oc23)C1 (stereo not given)
  1.3%	1.6%
Cc1ccc(S(=O)(=O)n2nc(-c3ccco3)nc2NCc2ccc(N(C)C)cc2)cc1
  1.0%	-0.3%
COc1cc(NC(=O)Cn2c(-c3ccccc3)cc(C(C)=O)c2C)cc(OC)c1
  0.4%	0.7%
CCOc1ccccc1NC(=O)C(C)N(c1ccccc1)S(C)(=O)=O (stereo not given)
  2.1%	-0.1%
O=C(Nc1cccc(C(F)(F)F)c1)c1cc(-c2ccc3c(c2)OCCO3)on1
  4.1%	4.2%
CCc1cccc(NC(=O)CCS(=O)(=O)c2ccc(C)cc2)c1
  -1.6%	-1.4%
COc1ccc(-c2cc(OC(=O)c3ccccc3)c3c(C)oc(C)c3c(=O)c2)cc1OC
  0.9%	0.2%
Cc1ccc(CN(Cc2ccco2)C(=O)c2cccc(C)c2)cc1
  -3.6%	-0.2%
Cc1ccccc1OCc1ccc(-c2nc(C#N)c(N3CCN(c4cccc(Cl)c4)CC3)o2)o1
  3.2%	-0.2%
COc1cccc(C(=O)Nc2ccc(-n3nncc3-c3ccccc3)cc2)c1
  -4.2%	-1.4%
Cc1cccc(-c2nc(SCC(=O)N(C)c3ccccc3)c3c(=O)n(C)c(=O)n(C)c3n2)c1
  1.2%	1.0%
Cc1cc(O)c(C(c2ccccc2)N2CCN(c3ccc(F)cc3)CC2)c(=O)n1Cc1ccco1 (stereo not given)
  -0.2%	0.2%
Cc1ccc(CN2CCc3nc(N4CCN(c5ncccn5)CC4)ncc3C2)cc1
  4.0%	0.0%
COC(=O)c1c(NC(=O)c2ccc(S(=O)(=O)N3CCCC(C)C3)cc2)sc2c1CCN(C(C)C)C2 (stereo not given)
  201%	11%
COc1ccc(-c2nc3nc(C)cc(C)n3c2Nc2c(C)cccc2C)cc1
  0.6%	-0.2%
COc1ccc(Cl)cc1NC(=O)Cn1cc2c(n1)CCC(C)C2 (stereo not given)
  -1.7%	5.3%
O=C1c2ccccc2NC(c2cc(Br)c3c(c2)OCO3)N1Cc1ccco1 (stereo not given)
  4.7%	1.3%
COc1ccc(NS(=O)(=O)c2ccc3[nH]c4c(c3c2)CCCC4)cc1Cl
  -0.5%	?
Cc1ccc2c(c1)N(C(=O)N1CCC(C(=O)NCCc3ccccc3)CC1)CC(C)O2 (stereo not given)
  -1.4%	-1.3%
Cc1ccc(-c2cn3c(n2)sc2cc(C(=O)NCCCc4ccccc4)ccc23)cc1
  16µM*	3.9%
Cc1ccc(C(=O)Nc2ccc3nc(N4CCCCC4)cc(C)c3c2)cc1F
  ?	5.3%
N#CCCn1cc(CNCc2cccnc2)c(-c2ccccc2)n1
  ?	-0.6%
O=C(Cn1c(=O)n(Cc2cccs2)c(=O)c2cccnc21)Nc1ccc(F)cc1
  5.8%	-1.3%
CC(=O)c1cccc(NS(=O)(=O)c2c(C)nc3sc(C)cn3c2=O)c1
  -0.7%	0.8%
COc1ccc(N2CCN(c3ncnc4onc(C)c34)CC2)cc1
  1.0%	0.5%
CC(C)(C)c1ccc(C(=O)Nc2c(C(=O)c3ccc(F)cc3)oc3ccccc23)cc1
  -1.7%	0.5%
Cc1ccc(-c2nc3ccccn3c2Nc2ccc(F)cc2)o1
  3.8%	0.0%

3 compounds picked at random from those above:
Each structure is followed by: ClpP mod	PINK1 modulator
Cc1ccccc1CNC(=O)C(=O)NCC(c1cccs1)S(=O)(=O)c1cccs1 (stereo not given)
  -3.7%	-0.6%
CCc1ccc(NCc2cccn2-c2nnc(N3CCCCCC3)s2)cc1
  -0.1%	0.2%
Cc1ccc(CN2CCc3nc(N4CCN(c5ncccn5)CC4)ncc3C2)cc1
  4.0%	0.0%

Next compounds follow:
Each structure is followed by: ClpP mod	PINK1 modulator
Cc1nc(N2CCCC2)ncc1C(=O)Nc1ccc(OC(F)(F)F)cc1
  -8.3%	3.2%
CC1(C)CC(=O)c2cc(-c3nc(-c4ccc(Cl)cc4)cs3)c(=O)n(-c3ccc(F)cc3)c2C1
  40µM*	0.0%
Cc1ccc(OC(=O)c2cc(-c3ccc4c(c3)OCCO4)on2)cc1C
  ?	0.0%
Cc1noc(/C=C/c2cccs2)c1S(=O)(=O)N1CCC(C(=O)Nc2ccc(F)c(Cl)c2)CC1
  -9.6%	4.8%
COc1ccc(NC(=O)c2ccc3nc(CCc4ccccc4)oc3c2)cc1
  4.1%	0.3%
COc1ccc(-c2[nH]c3c(c2-c2c(-n4cccc4)n(C)c(=O)[nH]c2=O)c(=O)[nH]c(=O)n3C)cc1F
  -4.4%	2.5%
Cc1cccc(Nc2sc(C(=O)c3ccc(Cl)cc3)c(N)c2C(N)=O)c1
  -12%	-1.5%
COc1ccc(-c2noc(CN3CCN(c4cccc(Cl)c4)CC3)n2)cc1
  -11%	2.5%
Cc1ccc(NC(=O)C(C)Sc2nc(=O)cc(N)n2-c2cccc(C)c2)cc1 (stereo not given)
  -1.3%	-1.3%
CCS(=O)(=O)N1CC(=O)N(c2ccc(C)c(C)c2)C(C)(C(=O)NC2CCCCCC2)C1 (stereo not given)
  1.1%	1.1%
CC(=O)c1ccc(NC(=O)c2ccc(-c3nc(COc4ccc(C)cc4)c(C)o3)cc2)cc1
  -2.1%	2.7%
COc1ccc2oc(=O)c(C(=O)Nc3ccc(C(=O)O)cc3)cc2c1
  -3.7%	1.7%
CCOc1ccccc1NC(=O)c1c(NCc2ccc(C)o2)sc2c1CCCCC2
  -3.7%	15%
COc1ccc(CNc2nc(-c3ccc(Cl)cc3)cc(C(F)(F)F)n2)cc1
  4.1%	?
COc1ccc(-c2nn3c(=O)cc(CN4CCN(C(=O)Nc5ccc(C)c(Cl)c5)CC4)nc3s2)cc1
  -6.7%	2.4%
CCN(CC)c1ccc(NC(=O)CCCN2C(=O)C(c3ccccc3)Oc3cccnc32)c(C)c1 (stereo not given)
  -4.2%	2.3%
Cc1ccc(NC(=O)CSc2nc3ccc(NC(=O)c4ccco4)cc3s2)c(C)c1
  3.8%	-0.2%
CCCOC(=O)c1c(NC(=O)C(C)Sc2nc(-c3ccccc3)cc(C(F)(F)F)n2)sc(C(=O)N(C)C)c1C (stereo not given)
  -8.5%	1.1%
O=C(C1=NOC2(C1)C(=O)Nc1ccccc12)N1CCOCC1 (stereo not given)
  1.4%	0.2%
COc1ccccc1NC(=O)CSc1nc2c(oc3ccccc32)c(=O)n1-c1ccccc1F
  -19%	1.5%
COc1ccc(F)cc1S(=O)(=O)NCCc1csc2nc(-c3cccc(C)c3)nn12
  0.4%	0.9%
O=C(CCn1c(=O)c2ccccc2n(Cc2cccc(Cl)c2)c1=O)NCCc1ccccc1
  -1.6%	2.1%
CCOC(=O)c1[nH]c(C)c(C(=O)NCCc2ccccc2)c1C
  -0.1%	-0.6%
Cc1ccc(NC(=O)Cn2nc(N3CCN(c4ccccc4)CC3)ccc2=O)cc1F
  0.4%	0.1%
Cc1ccc(CNC(=O)c2ccc3c(c2)nc2n3CCCC2)cc1
  -3.5%	-0.2%
Cc1ccc(C(=O)Nc2ccc(Cl)c(-c3nc4ncccc4o3)c2)c(C)c1
  -16%	0.9%
CCOC(=O)c1ccccc1NC(=O)c1ccc2c(Cl)c3c(nc2c1)CCC3
  -0.7%	0.7%
Cc1ccnc(NS(=O)(=O)c2ccc(NC(=O)c3ccc(C)c(C)c3)cc2)n1
  -3.1%	0.4%
COc1ccccc1N1CCN(C(=O)c2oc3ccccc3c2NC(=O)C(C)Oc2ccccc2)CC1 (stereo not given)
  -14%	2.1%
Cn1c(-n2cccc2)c(-c2c(-c3ccccc3)[nH]c3c2c(=O)[nH]c(=O)n3C)c(=O)[nH]c1=O
  -2.8%	-0.6%
CC(C)C[C@@H](COCc1ccc(F)cc1)N1CCN(C(=O)c2cccc(C(F)(F)F)c2)CCC1=O
  2.2%	0.0%
Cc1cccc(C)c1-n1nnnc1C1(C)CCC(=O)N1CC1CCCCC1 (stereo not given)
  -1.3%	0.0%
O=C(Cc1ccccc1F)N1CCC(c2nc3c(nnn3Cc3ccc(F)cc3)c(=O)[nH]2)CC1
  1.0%	0.5%
Cc1cc(C)c2c(C)c(C(=O)N3CCC(c4nc5ccccc5s4)CC3)oc2c1
  -1.0%	0.3%
COc1ccc(-c2nn3c(-c4ccccc4C)nnc3c3ccccc23)cc1
  -13%	-0.2%

This is a subset; rates above refer to the full screens.
